Cruzain inh Det = inhibitors of Trypanosoma cruzi cruzain with detergent | purified cruzain, Z-FR-AMC fluorescence, 0.01% Triton | Potency, µM, for inactives: max response, negative = inhibition, most hits filed as inhibitors | P25779 | 200,000 compounds, 0.43% hits;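 note: plate controls were neutral wells for no effect and buffer without enzyme for full effect; nearly all actives have a fitted effect of over 40% in size; top concentration of the series not given in the record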
Target sequence (P25779 123-467 limits assumed): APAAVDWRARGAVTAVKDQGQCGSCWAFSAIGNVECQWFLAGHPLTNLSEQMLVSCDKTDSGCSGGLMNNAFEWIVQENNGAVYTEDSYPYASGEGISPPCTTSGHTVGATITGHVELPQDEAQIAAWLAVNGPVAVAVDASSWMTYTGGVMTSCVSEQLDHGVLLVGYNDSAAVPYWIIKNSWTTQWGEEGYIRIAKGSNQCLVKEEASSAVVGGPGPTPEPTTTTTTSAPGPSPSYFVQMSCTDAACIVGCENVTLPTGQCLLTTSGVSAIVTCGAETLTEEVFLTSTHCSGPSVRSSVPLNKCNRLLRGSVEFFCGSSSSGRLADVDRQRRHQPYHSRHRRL
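Z-FR-AMC hydrolysis (2 uM substrate) by cruzain (1.5 nM) monitored kinetically at ex 360/em 450 nm after 15 min room-temperature compound exposure; 0.01% Triton X-100, pH 5.5, 5 mM DTT.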
NS1 inh = blocks influenza NS1 protein function; S. cerevisiae slowed by influenza A NS1, growth recovery by OD600; Potency, µM (highest dose often 46.1 µM), without a hit: at the top dose activity, positive = more growth; 270,000 compounds, 0.4% hits; AID 2326; active means well fitted rising curve with a large enough effect; inconclusive means small, poorly fitted or top-dose-only effect; inactive means no such curve, though single readings can be large or run the other way; note: nearly all actives have a fitted effect of over 50% in size
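Recovery from NS1-induced slow growth read by OD600 in budding yeast switched to galactose assay medium (pH 6.0, -URA) at 1:100 dilution. Compound 23 nl per well; the matching strain lacking NS1 serves as control.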
SARS PLpro yeast = SARS-CoV PLP inhibition in yeast; AID 485353; 330,000 compounds, 0.19% hits; S. cerevisiae expressing SARS-CoV PLpro, growth rescue; control for the full effect not named in the record; Potency, µM (doses to about 32.9 µM), for the others: top-dose activity, positive = growth rescue; active means well fitted rising curve with a large enough effect; inconclusive means small, poorly fitted or top-dose-only effect; inactive means no such curve, though single readings can be large or run the other way; note: 0% is about no effect; nearly all actives have a fitted effect of over 55% in size; growth read by luminescence after 48 h
RE007 growth inh = less growth of the S. pombe RE007 Vpr strain; S. pombe RE007 Vpr strain, BacTiter-Glo ATP luminescence, 24 h; control for the full effect not named in the record; 360,000 compounds, 0.21% hits; Potency, µM (highest dose often 92.2 µM), for the others: at the highest dose activity change, negative = less growth; AID 651644; active = well fitted falling curve with a large enough effect; inconclusive = small, poorly fitted or top-dose-only effect; inactive = no such curve, though single readings can be large or run the other way;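 note: % is set by controls: 0 for no effect and ±100 for the full control effect; nearly all actives have a fitted effect of over 50% in size; the assay follows cell death caused by Vpr and the record does not say whether a fall means rescue or toxicity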
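Fission yeast strain RE007, carrying one chromosomally integrated HIV-1 vpr copy, was seeded at OD 0.01 in PMG+AL medium with 23 nL pinned compound. After 24 h at 30 °C and 99% humidity, viability was read by BacTiter-Glo luminescence.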
StopGo reporter = lowers the luciferase signal of an FMDV 2A StopGo reporter | human cells with a luciferase reporter of 2A StopGo recoding; control for the full effect not named in the record | Potency, µM (top dose mostly 57.9 µM), without a hit: at the highest dose signal change, negative = less light | 410,000 compounds, 1.2% hits; active = well fitted falling curve with a large enough effect; inconclusive = small, poorly fitted or top-dose-only effect; inactive = no such curve, though single readings can be large or run the other way; tested in HEK293T cells; note: % is set by controls: 0 for no effect and ±100 for the full control effect; nearly all actives have a fitted effect of over 45% in size; luciferase light after 4 h
LASV entry inh = inhibitors of Lassa virus binding or cell entry. 300,000 compounds, 1.2% hits. Lassa virus pseudotype entry inhibition, cell reporter; control for the full effect not named in the record. Potency, µM (highest dose often 37.9 µM), for the others: at the highest dose activity change, negative = inhibition, most hits filed as inhibitors; active means well fitted inhibition curve with a large enough effect; inconclusive means small, poorly fitted or top-dose-only effect, or effect the other way; inactive means flat fitted curve, though single readings scatter; tested in HEK293 cells; note: % is set by controls: 0 for no effect and ±100 for the full control effect; nearly all actives have a fitted effect of over 50% in size; luciferase read-out
Marburg entry inh = blocks Marburg virus binding to or entry into cells; Marburg virus pseudotyped entry inhibition, cell reporter; control for the full effect not named in the record; about a third of the inactives were read at about 46 µM; Potency, µM (series often up to 37.8 µM), for the others: at the top dose activity change, negative = inhibition, actives largely listed as inhibitors; 300,000 compounds, 1.8% hits; AID 540276; active = well fitted inhibition curve with a large enough effect; inconclusive = small, poorly fitted or top-dose-only effect, or effect the other way; inactive = flat fitted curve, though single readings scatter; tested in HEK293 cells; about a fifth of its hits are not listed in these tables; note: % is set by controls: 0 for no effect and ±100 for the full control effect; luciferase read-out
Cruzain inh noDet = cruzain (T. cruzi) inhibition without detergent. 200,000 compounds, 2.3% hits. Potency, µM, for inactives: max response, negative = inhibition, hits mostly inhibitors. purified cruzain, Z-FR-AMC fluorescence, no detergent;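 note: plate controls were enzyme without inhibitor for no effect and buffer without enzyme for full effect; nearly all actives have a fitted effect of over 40% in size; top concentration of the series not given in the record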
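Purified cruzain at 1.5 nM, pre-incubated 15 min with compound at room temperature in 100 mM sodium acetate pH 5.5, 5 mM DTT, 0.00005% Triton X-100. Reaction started with 2 uM Z-FR-AMC; AMC fluorescence increase over 60 s gives rate.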
* hit, by the source's call; u = inconclusive; x = not tested or not shown; [ ] = dose if it differs, or a comment. Unless noted, calls come from the whole dose curve; as a rule, active = well fitted curve in the direction sought with a large enough effect; inconclusive = small, poorly fitted or top-dose-only effect, or another doubt; inactive = no such curve, though single readings can be large; an effect the other way counts as inactive or inconclusive. Potency is the fitted concentration of half-maximal effect.

SMILES	Cruzain inh Det	NS1 inh	SARS PLpro yeast	RE007 growth inh	StopGo reporter	LASV entry inh	Marburg entry inh	Cruzain inh noDet
CCCn1c(SCC(=O)O)nc2ccccc21	4.1%	-9%	-1%	-10%	-7%	1%	2%	2%
Cc1noc(C)c1COC(=O)[C@@H](NC(=O)c1ccccc1Cl)C(C)C	x	x	1%	10%	-11%	0%[46.1 µM]	-14%[46.1 µM]	x
CC(Sc1nnc(-c2cccnc2)n1-c1ccccc1F)C(=O)N1CCCc2ccccc21 (stereo not drawn)	-1.0%	1%	-12%	x	x	x	-1%	2%
CCN(CC(=O)Nc1c(F)cccc1F)C(=O)c1ccc(S(=O)(=O)N2CCCC2)cc1	x	x	0%	-16%	-23%	2%	20%	x
COc1cccc(C(=O)NCC(C)(C)SCc2ccc(F)cc2)c1	x	-44%	-2%	-11%	5%	x	x	x
COc1cc(OC)cc(C(=O)NCC(=O)OCc2nc3ccccc3s2)c1	x	-6%	-2%	0%	49%[activator]	22%	u	x
COc1ccc(Oc2c(Cl)cnn(-c3ccc(F)cc3)c2=O)cc1	0.5%	-7%	4%	-21%	0%	u	u	4%
CN(C)S(=O)(=O)N1CCN(Cc2ccccc2)CC1	5.5%	0%	5%	-21%	0%	6%	9%	-6%
CC(=O)N(Cc1ccccn1)Cc1ccco1	x	2%	0%	-4%	-9%	10%	9%	x
Cc1c(NS(=O)(=O)c2ccc(F)cc2)c(=O)n(-c2ccccc2)n1C	x	-5%	1%	-8%	-18%	23%	21%	x
CCOC(=O)c1ccc(NC(=O)c2cc3c(s2)CCC3)cc1	x	-4%	0%	-9%	6%	-12%	-13%[46.1 µM]	x
O=C(Nc1cc(S(=O)(=O)N2CCOCC2)ccc1N1CCCC1)c1cc(=O)[nH]c2ccccc12	x	16%	1%	-1%	-20%	x	x	x
O=c1[nH]c(NCCO)nc2ncn(Cc3ccccc3)c12	5.1%	-4%	2%	-12%	-1%	-2%	u	3%
CCOC(=O)N1CCN(Cc2ccccn2)CC1	-1.2%	4%	x	-6%	-25%	3%	15%	-4%
O=C(Nc1ccc(C(F)(F)F)cc1)c1cccnc1N1CCOCC1	0.6%	-2%	-5%	10%	-9%	-7%	u	7%
CC(=O)c1c(C)nc2ccc(Br)cc2c1-c1ccccc1	x	x	-9%	-4%	-18%	u	-8%[46.1 µM]	x
COc1ccc(N2C(=O)/C(=C/c3ccc(C)o3)C(=O)NC2=S)c(OC)c1	x	26%	4%	4%	20µM*	x	x	x
COc1ccccc1C1c2ccc3ccccc3c2Oc2ncn(CCN(C)C)c(=N)c21 (stereo not drawn)	x	-4%	-4%	8%	-31%	u	2.8µM*	x
Cc1cc(NS(=O)(=O)c2ccc(NC(=O)COc3ccc(Cl)c(C)c3)cc2)no1	x	9%	-8%	2%	44%[activator]	3%[46.1 µM]	11%[46.1 µM]	x
COc1cccc(-c2c(C(=O)N/N=C(\C)c3ccncc3)nnn2-c2nonc2N)c1	x	14%	15%	20%	u	x	x	x
COc1ccc(CNC(=O)C2=CC(c3cccc(OC)c3)=NS(=O)(=O)N2C)cc1	-8.6%	x	x	x	-5%	-12%[46.1 µM]	u	u
COc1ccc(NC(=O)c2nn(C)c3c2CS(=O)(=O)c2ccccc2-3)cc1Cl	-0.8%	x	x	x	-12%	6%[46.1 µM]	x	5%
CCC(c1nc2ccccc2c(=O)n1CCN1CCOCC1)N1C(=O)c2ccccc2C1=O (stereo not drawn)	1.5%	-10%	-8%	5%	-6%	0%	10%	u
O=C(c1ccc2c3c(cccc13)CC2)C1CCCN(C(=O)c2ccc[n+]([O-])c2)C1 (stereo not drawn)	x	-2%	0%	-4%	14%	x	x	x
COc1cccc(CN(CC(=O)NCc2ccc(F)cc2)C(=O)c2ccco2)c1	x	6%	-1%	4%	-10%	u	0%[46.1 µM]	x
O=C(Nc1ccc(F)cc1F)c1cc2nc(-c3ccco3)cc(C(F)(F)Cl)n2n1	0.6%	x	x	x	-11%	-14%[46.1 µM]	x	-4%
COc1ccc(/C=C/c2cc(C(F)(F)F)on2)cc1	x	4%	1%	-1%	34%[activator]	10%[46.1 µM]	u	x
COc1ccc(CCNC(=O)C(C)n2nc(C)c3sc4ccccc4c3c2=O)cc1OC (stereo not drawn)	-4.8%	x	x	x	-27%	17%[46.1 µM]	u	32µM*
CC(=O)c1ccc(NC(=O)CNc2cc(S(=O)(=O)N3CCOCC3)ccc2N2CCCC2)cc1	x	x	5%	8%	-5%	14%	-8%	x
COc1ccccc1CNC(=O)c1cc2c(-c3ccc(Cl)cc3)nn(C)c2s1	-1.3%	x	x	x	-22%	-2%[46.1 µM]	-1%[46.1 µM]	11%
Cc1cccc(N(CC(=O)Nc2ccccc2-c2ccccc2)S(=O)(=O)c2ccccc2)c1C	-7.4%	u	8%	33%	-25%	-29%	u	u
CCCC(c1nnnn1Cc1ccccc1)N1CCN(c2ccccc2OC)CC1 (stereo not drawn)	-1.8%	-17%	-1%	-2%	u	-24%	-13%	10%
COc1ccc(CCn2c(C)cc(C(=O)CSc3nnnn3-c3ccccc3)c2C)cc1	3.2%	2%	11%[6.58 µM]	-17%	-14%	13%	u	u
CNc1nc(Cl)nc(NC(C)(C)C)n1	8.3%	12%	2%	-2%	2%	4%	18%	5%
CCCCn1c(SCC(=O)Nc2cc(C)on2)nnc1-c1cccnc1	3.1%	2%	1%	22%	-4%	-1%	2%	-3%
COc1ccc(S(=O)(=O)NCc2cccnc2)cc1C(=O)Nc1ccccc1	x	-11%	-4%	-19%	-4%	2%	21%	x

Part of the list above in order of formula weight, highest first.
SMILES	Cruzain inh Det	NS1 inh	SARS PLpro yeast	RE007 growth inh	StopGo reporter	LASV entry inh	Marburg entry inh	Cruzain inh noDet
CC(=O)c1ccc(NC(=O)CNc2cc(S(=O)(=O)N3CCOCC3)ccc2N2CCCC2)cc1	x	x	5%	8%	-5%	14%	-8%	x
COc1ccc(CCNC(=O)C(C)n2nc(C)c3sc4ccccc4c3c2=O)cc1OC (stereo not drawn)	-4.8%	x	x	x	-27%	17%[46.1 µM]	u	32µM*
COc1ccc(CCn2c(C)cc(C(=O)CSc3nnnn3-c3ccccc3)c2C)cc1	3.2%	2%	11%[6.58 µM]	-17%	-14%	13%	u	u
O=C(Nc1ccc(F)cc1F)c1cc2nc(-c3ccco3)cc(C(F)(F)Cl)n2n1	0.6%	x	x	x	-11%	-14%[46.1 µM]	x	-4%
COc1cccc(-c2c(C(=O)N/N=C(\C)c3ccncc3)nnn2-c2nonc2N)c1	x	14%	15%	20%	u	x	x	x
COc1ccc(NC(=O)c2nn(C)c3c2CS(=O)(=O)c2ccccc2-3)cc1Cl	-0.8%	x	x	x	-12%	6%[46.1 µM]	x	5%
COc1ccc(CNC(=O)C2=CC(c3cccc(OC)c3)=NS(=O)(=O)N2C)cc1	-8.6%	x	x	x	-5%	-12%[46.1 µM]	u	u
COc1ccccc1CNC(=O)c1cc2c(-c3ccc(Cl)cc3)nn(C)c2s1	-1.3%	x	x	x	-22%	-2%[46.1 µM]	-1%[46.1 µM]	11%
CCCC(c1nnnn1Cc1ccccc1)N1CCN(c2ccccc2OC)CC1 (stereo not drawn)	-1.8%	-17%	-1%	-2%	u	-24%	-13%	10%
COc1ccc(S(=O)(=O)NCc2cccnc2)cc1C(=O)Nc1ccccc1	x	-11%	-4%	-19%	-4%	2%	21%	x
COc1cccc(CN(CC(=O)NCc2ccc(F)cc2)C(=O)c2ccco2)c1	x	6%	-1%	4%	-10%	u	0%[46.1 µM]	x
O=C(c1ccc2c3c(cccc13)CC2)C1CCCN(C(=O)c2ccc[n+]([O-])c2)C1 (stereo not drawn)	x	-2%	0%	-4%	14%	x	x	x
CCCCn1c(SCC(=O)Nc2cc(C)on2)nnc1-c1cccnc1	3.1%	2%	1%	22%	-4%	-1%	2%	-3%
CNc1nc(Cl)nc(NC(C)(C)C)n1	8.3%	12%	2%	-2%	2%	4%	18%	5%

Further records.
SMILES	Cruzain inh Det	NS1 inh	SARS PLpro yeast	RE007 growth inh	StopGo reporter	LASV entry inh	Marburg entry inh	Cruzain inh noDet
COc1cc(C(=O)OCC(=O)N2CCCCC2C)cc(NC(=O)c2cccs2)c1OC (stereo not drawn)	x	x	-2%	0%	u	u	u	x
COC(=O)c1cc2oc3ccccc3c2n1Cc1ccccc1Cl	-0.4%	x	x	x	-12%	x	1%[46.1 µM]	-2%
O=C(O)/C=C/C(=O)Nc1ccccc1-c1ccccc1	7.9%	0%	-37%	-29%	-27%	15%	9%	4%
NS(=O)(=O)c1ccc(NC(=S)NCc2ccc3c(c2)OCO3)cc1	x	3%	1%	-2%	19%	-5%	-7%[46.1 µM]	x
c1ccc(N2CCN(c3nc4ccccc4[nH]3)CC2)nc1	x	x	3%	-9%	39%[activator]	10%	29%[46.1 µM]	x
Cc1nnc(SCc2nnc(-c3cccs3)o2)n1Cc1ccccc1	x	x	4%	-9%	-10%	7%	-16%	x
Cn1c(=O)n(CCCc2ccccc2)c(=O)c2c1nc1n2CCN1c1ccc(F)cc1	-2.6%	x	x	x	-19%	-19%[46.1 µM]	x	17%
CCc1c(O)nc(SCc2ccc(F)cc2)[nH]c1=O	x	-4%	5%	3%	3%	-12%	13%	x
O=C(COc1ccccc1)NCC(=O)N1CCCC1	x	-3%	11%	3%	13%	x	4%[46.1 µM]	x
Cc1c(-c2ccc(Cl)cc2)c(=O)oc2c(CN3CCOCC3)c(O)ccc12	-23%	x	x	x	-26%	-9%[46.1 µM]	x	-17%
Cc1c(NP(=O)(c2ccc(Br)cc2)c2ccc(Br)cc2)c(=O)n(-c2ccccc2)n1C	x	x	-1%	23%	7%	-2%[46.1 µM]	u	x
O=C(CC1C(=O)NCCN1C(=O)Nc1ccc(C(F)(F)F)cc1)Nc1ccc(F)cc1 (stereo not drawn)	x	8%	-5%	u	-19%	x	x	x

Compound activity as filed in PubChem.
